# NPYLR7 ag = agonists of mosquito NPYLR7 receptor, primary screen, cell-based, Aedes aegypti, calcium fluorescence, mosquito biting behavior. AID 1259423, 2018. HEK293T NPYLR7/Galpha15, GCaMP6s calcium fluorescence. 0.15% of 270,000 active. activation, % at 10 µM; in the data active = activation above about 40%;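 note: 0% = vehicle and 100% = reference agonist at the receptor; some compounds past the cut are filed as inactive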
# NPYLR7 ag max-min = further read-out of NPYLR7 ag, marked with its call; activation, %; measured here: Max-Min RFU normalised activation; some inactives read as strong as hits;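 span of the calcium signal over five minutes; 0% = vehicle and 100% = native peptide agonist; compound fluorescence can raise it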
# * hit, by the source's call; & = joins results of further samples. These rows are one share of the data; count on the stated rates, not on these rows.
SMILES,NPYLR7 ag,NPYLR7 ag max-min
O=C(O)Cc1ccc(O)c(O)c1,-5,-12
O=C(NC(c1ccc(F)cc1)c1ccc2ccccc2n1)C1CCN(Cc2cccc(C(F)(F)F)c2)CC1 (centres undefined),5,2
c1ccc(-n2cnnc2SCc2nc3ccccc3o2)cc1,2,-2
CCCCSCC(=O)NC12CC3CC(CC(C3)C1)C2,0,1
O=C(Nc1cccc(-c2ccc(F)cc2)c1)C1CCCN(Cc2cccnc2)C1 (centres undefined),9,0
COc1ccccc1NC(=O)c1cc(-c2ccccc2)nc2ccc(C)cc12,3,-2
O=C(NCCCCCC(=O)N1CCC(c2ccccc2)CC1)OCc1ccccc1,24,11
Oc1ccc(Cl)cc1CN1CCCn2cccc2C1c1ccccc1C(F)(F)F (centres undefined),21,29
CCOC(=O)C1=C(C)N=c2s/c(=C\c3cccc(OC)c3)c(=O)n2C1c1ccc2c(c1)OCO2 (centres undefined),0,-6
CCOCCCNC(=O)c1cc(NC(=O)Nc2ccccc2Br)ccc1N1CCCC1,-6,-2
COCC(=O)Nc1cc(-c2nc3ccc(Br)cc3[nH]2)ccc1Cl,11,7
COc1ccc(NC(=O)CCN(CCCN2CCOCC2)c2nc(-c3ccco3)nc3ccccc23)cc1,14,9
COc1ccc(CC(=O)N2CCOC(COCc3cccc(C)c3)C2)cc1 (centres undefined),-8,-13
Cc1ccc(OS(=O)(=O)c2ccc(N3C(=O)CCC3=O)cc2)cc1,2,3
Cc1nn(C)c(C)c1CN(C(=O)c1ccc2nc(C3CCCCC3)oc2c1)C1CC1,5,3

# Filtered by structure, the entries above containing bromine.
SMILES,NPYLR7 ag,NPYLR7 ag max-min
CCOCCCNC(=O)c1cc(NC(=O)Nc2ccccc2Br)ccc1N1CCCC1,-6,-2
COCC(=O)Nc1cc(-c2nc3ccc(Br)cc3[nH]2)ccc1Cl,11,7

# Returning to the listing with the 7 entries that preceded the break.
SMILES,NPYLR7 ag,NPYLR7 ag max-min
CCOC(=O)C1=C(C)N=c2s/c(=C\c3cccc(OC)c3)c(=O)n2C1c1ccc2c(c1)OCO2 (centres undefined),0,-6
CCOCCCNC(=O)c1cc(NC(=O)Nc2ccccc2Br)ccc1N1CCCC1,-6,-2
COCC(=O)Nc1cc(-c2nc3ccc(Br)cc3[nH]2)ccc1Cl,11,7
COc1ccc(NC(=O)CCN(CCCN2CCOCC2)c2nc(-c3ccco3)nc3ccccc23)cc1,14,9
COc1ccc(CC(=O)N2CCOC(COCc3cccc(C)c3)C2)cc1 (centres undefined),-8,-13
Cc1ccc(OS(=O)(=O)c2ccc(N3C(=O)CCC3=O)cc2)cc1,2,3
Cc1nn(C)c(C)c1CN(C(=O)c1ccc2nc(C3CCCCC3)oc2c1)C1CC1,5,3
CCCCN(CC(=O)N1c2ccccc2-n2cccc2C1c1ccc(OC)cc1)C(=O)c1cc(Cl)cc(Cl)c1 (centres undefined),14,13
COCCc1noc(C2CCCN(C(=O)c3cnn4c3CCCC4)C2)n1 (centres undefined),4,4
O=C(c1ccc(Cn2cc(Br)cn2)o1)n1cccn1,2,0
COC[C@H](Cc1ccccc1)NC(=O)CNC(=O)c1ccc(SC)cc1,0,2
Cc1cccnc1CN1CCN(C(=O)c2cn(CCC3CCCCC3)nn2)CC1,6,-1
Cc1nn(C)c(C)c1NC(=O)CNc1cc(Cl)ccc1C(=O)N1CCCC1,11,9
CN1CC(=O)N(CC(=O)Nc2ccccc2Sc2ccccc2)C1=O,-2,-3
Clc1cccc(C=NC=Nc2cccc(Cl)c2)c1,-6,-15
Cn1c(=O)oc2cc(S(=O)(=O)Nc3cccnc3)ccc21,8,7
CCOC(=O)c1nn(-c2ccccc2)c(=O)c2c(NC(=O)COC)scc12,2,1
O=C1C(=O)N(c2nncs2)C(c2ccc(F)cc2)C1=C(O)c1ccc(F)cc1 (centres undefined),6,4
COc1ccc(-n2c(-c3ccccc3F)n[nH]c2=S)cc1,-9,-9
Cc1ccccc1C1c2ccsc2CCN1C(=O)CN(C(=O)c1ccc2c(c1)OCO2)C1CCCCC1 (centres undefined),6,5
N#CCCN(Cc1cccnc1)C(=O)CC(c1ccccc1C(F)(F)F)c1c[nH]c2ccccc12 (centres undefined),3,6
O=C(NC1=C(NC2CCS(=O)(=O)C2)C(=O)c2ccccc2C1=O)c1ccccc1 (centres undefined),0,-1
COc1ccc(-n2nnc3c(N4CCN(S(=O)(=O)c5cccs5)CC4)ncnc32)cc1,-11,-20
Cc1c(C(=O)NCc2snnc2C(C)C)cnn1-c1ccccn1,1,1
CC(c1ccccc1)N1C(=O)C2C(C1=O)C1(C)C=CC2(C)O1 (centres undefined),5,11
COC(=O)C(C)Sc1nnc(Cc2ccccc2)n1-c1ccccc1C (centres undefined),-2,4
CCC(C)(NC(=O)c1ccc(COc2ccccc2C#N)o1)C(=O)OC (centres undefined),-5,-7
CN(C)c1nc2sc(C(=O)NCC3CCCOC3)cc2s1 (centres undefined),4,-2
CC(C)N(Cc1nc2ccccc2c(=O)[nH]1)C(=O)CN1C(=O)N(C)C2(CCCCC2)C1=O,7,5
O=C1OCCN1Cc1nc(C2(c3ccc(F)cc3)CCOC2)no1 (centres undefined),-5,-8
Cc1nc(CN2C(=O)C(C)ON=C2c2cccc3ccccc23)cs1 (centres undefined),-4,-9
Clc1ccc(-n2nnnc2SCc2nc3ccccc3o2)cc1,-2,3
COc1ccc2c(c1)C1(NCCS1)C(=O)N2Cc1cccc(C#N)c1 (centres undefined),35,37
O=C(CSc1nc2[nH]ncc2c(=O)[nH]1)c1ccc(Cl)cc1,-21,-18
CC(C)Cc1cc(C(=O)N2CCc3c(ncnc3N3CCOCC3)C2)on1,8,6
CCCn1nnnc1Cn1nc2ccccn2c1=O,3,20
CCOc1ccc2c(c1)c(=O)c(S(=O)(=O)c1ccccc1)cn2Cc1ccc(OC)cc1,-6,-12
CCn1c(SCc2ccc(Br)cc2F)nnc1-c1c2c(nc3ccccc13)CCC2,-2,2
COC(=O)c1ccc(/C=N\NC(=O)CSc2nc3ccccc3[nH]2)cc1,-9,-10
CN(Cc1nc2ccc(Cl)cc2[nH]1)C(=O)CCc1nnc(C2CCCCC2)o1,5,3
Cc1cc(C)nc(NNC(=O)C2(c3ccc(Cl)cc3)CCCC2)n1,7,0
CCOC(=O)c1ccc(NC(=O)CSc2ccc3nnc(-c4ccc(OC)cc4)n3n2)cc1,13,13
COCCCn1c(=S)[nH]c2sc3c(c2c1=O)CCCC3,-12,-18
CN1CCN(C)C2(CCN(C(=O)c3cccc4c3NCCC4)CC2)C1,13,11
CSc1ccc(/C=C2\N=C(c3ccccc3)OC2=O)cc1,-3,-6
Cc1nnc(SCc2nc(-c3ccsc3)no2)n1C1CC1,-2,-1
O=C(c1ccc(CSc2cccc(C(F)(F)F)c2)cc1)N1C2CCC1CC(Oc1ccc3c(c1)OCO3)C2 (centres undefined),-1,-7
CNCCOc1ccc(C)cc1-c1cc(N)nc2[nH]ccc12,-6,-10
COc1ncc(C(=O)NCc2cccnc2N(C)C2CCCCC2)cn1,2,-4
N#CCCN(Cn1nc(C2CC2)n(-c2ccccc2)c1=S)C1CC1,-1,16
CC1(C)CC(Nc2ccc(C(F)(F)F)cc2[N+](=O)[O-])CC(C)(C)N1,6,-2
CCN(CC)S(=O)(=O)c1cccc(C(=O)Nc2cccc(F)c2)c1,4&7,3&6
CN(c1ccccc1)S(=O)(=O)c1c(F)cc(F)cc1Br,-6,-5
CCOc1ccccc1CN(C(=O)c1cn2cc(Cl)ccc2n1)C1CC1,-2,-1
COC(=O)CCC(=O)Nc1cccc(-c2cccc(-c3ccc4c(c3)OCCO4)n2)c1,2,3
COc1ccc(NC(=O)Nc2ccc3nc([C@@H]4O[C@H](CO)[C@@H](O)[C@H](O)[C@H]4O)[nH]c3c2)cc1OC1CCCC1,9,14
CCCN(CC1CC1)CC1(O)CCCC1,16,5
O=C(Nc1ccccc1)N1CC[C@@H](c2ccc3c(c2)OCO3)[C@H](O)C1,2,1
COCC(=O)N1C[C@H]2CNC[C@@]2(C(=O)N(C)Cc2cnc3ccccn23)C1,9,2
CN(c1cc(C(=O)NCCCn2ccnc2)c2ccccc2n1)C1CCCCC1,24,29
C=CCN(C(=O)c1ccc2c(c1)no[n+]2[O-])C(C)C,-1,-4
Cc1nn(C)c2nc(-c3cccs3)cc(C(=O)N3CC(C(N)=O)CCC3C)c12 (centres undefined),14,9
CCSc1nnc(Cn2c(=O)sc3ccccc32)n1C,6,7
COc1cc2c(cc1OC)CN(c1cc(C(=O)NC(C)c3ccc(Br)cc3)c3ccccc3n1)CC2 (centres undefined),5,0
CCC(CC)C(=O)N(C)c1c(C)nc2c(OCCOc3ccc(F)cc3)cccn12,-1,-15
COCCCNC(=O)C(NC(=O)c1ccccc1)C1CCN(S(=O)(=O)C(C)C)CC1 (centres undefined),5,2
CCCC(NC(=O)C(C)NC(=O)C1CCOCC1)C1CCCCC1 (centres undefined),2,-1

# Going on with the list:
SMILES,NPYLR7 ag,NPYLR7 ag max-min
CCc1c(C)nc(-n2nc(C)cc2NC(=O)c2cccc(OC)c2)[nH]c1=O,6,3
CS(=O)c1cccc(NS(=O)(=O)c2cccc(F)c2C#N)c1 (centres undefined),5,2
O=S(=O)(NCc1ccco1)c1ccc(Br)cc1,4,0
Cc1ccccc1Cn1ccc([N+](=O)[O-])n1,2,1
CCC(C)NC(=O)c1nn(-c2ccc(C)c(Cl)c2)c(=O)n(Cc2cccc(F)c2)c1=O (centres undefined),17,16
CN(Cc1ncc[nH]1)c1nccc(N2CCC(O)C2)n1 (centres undefined),4,1
Cc1ccc(CSc2cc(C)[nH]c(=O)n2)cc1,0,1
COc1cc2c(cc1OC)CN(c1nc(C)ns1)CC2,1,3
Cc1cc(OCc2nn[nH]n2)c2c(C)cc(=O)oc2c1,-1,-3
CN(Cc1cc(-c2ccccn2)no1)C(=O)CCc1cn2ccccc2n1,-3,-2
Cc1ncc(CN2CCC(n3nccc3NC(=O)c3ccc4c(c3)OCO4)CC2)s1,6,5
O=c1c(S(=O)(=O)c2ccc(Cl)cc2)c[nH]c2ccccc12,8,8
COc1ccc(-n2ncc(C(=O)O)c2C(C)C)cc1,-6,-13
CN(Cc1cnn(C)c1)C(=O)CN(C)S(=O)(=O)c1ccccc1C#N,10,8
Cn1c2ccccc2c2nnc(NCC3CCCO3)nc21 (centres undefined),2,1
CSc1ccc(CNC(=O)C2(C)CCN2C(C)C)cc1 (centres undefined),-7,-7
COc1cccc(-c2nnc3ccc(OCCNC(=O)Nc4cc(C)ccc4OC)nn23)c1,-3,-4
Cc1cccc2nc(C(=O)Nc3cnc4n3CCCC4)c(F)n12,-1,-1
COc1cc(-c2cc3c(cn2)nc(NCc2ccccc2)n3C)cc(OC)c1OC,11,2
COc1cccc(C(=O)CSc2nnc(NC(C)=O)s2)c1,1,14
Cc1c(C(=O)NCC(C)N(C)c2ccccc2)oc2c1C(=O)CCC2 (centres undefined),2,0
Brc1cnc(Sc2n[nH]c(-c3ccncc3)n2)nc1,10,8
COc1ccc2nc(Cl)c3nnnn3c2c1,13,4
CCOC(=O)CC1COCCN1C(=O)c1cc(COc2ccccc2SC)on1 (centres undefined),6&-4,2&2
CC(=O)Nc1ccc(Cl)c(C(=O)N(C)Cc2ccc3nsnc3c2)c1,-11,-10
CCNC(=O)C1(C)CCN1C(=O)c1cc(C)n(C)n1 (centres undefined),6,4
CCC(C)NC(=O)C(C)n1c(=O)n(-c2cccc(OC)c2)c(=O)c2ccc(Cl)cc21 (centres undefined),26,38
COc1ccc2c(c1)C(=O)CC(c1ccccc1F)O2 (centres undefined),-5,-8
CCC(C(=O)NC(C)c1nnc(SCc2ccc(F)cc2)n1-c1ccc(C)cc1)c1ccccc1 (centres undefined),5,15
CC(C)CC1c2[nH]c3ccccc3c2CCN1C(=O)c1cnccn1 (centres undefined),0,-4

# Complete entries from above:
# N#CCCN(Cn1nc(C2CC2)n(-c2ccccc2)c1=S)C1CC1 as listed: NPYLR7 ag = -1; NPYLR7 ag max-min = 16
# CN(Cc1nc2ccc(Cl)cc2[nH]1)C(=O)CCc1nnc(C2CCCCC2)o1 as listed: NPYLR7 ag = 5; NPYLR7 ag max-min = 3
# O=C(NC1=C(NC2CCS(=O)(=O)C2)C(=O)c2ccccc2C1=O)c1ccccc1 (centres undefined) as listed: NPYLR7 ag = 0; NPYLR7 ag max-min = -1

# The results go on:
SMILES,NPYLR7 ag,NPYLR7 ag max-min
O=C(CCN1CCOC(c2cccc(Br)c2)C1)NC1CC1 (centres undefined),-7,-7
CCOC(=O)Cn1cnc2c(nnn2CC)c1=O,0,18
c1ccc(Nc2nncs2)cc1,7,9
COc1ccc(CS(=O)Cc2csc(C3CCCCC3)n2)cc1F (centres undefined),5,2
O=C(CNc1cccc2ccccc12)NCCC1=CCCCC1,-2,-3
CC(C)(C)OC(=O)Nc1ccc(C(F)(F)F)cc1C(=O)N1CCC1,1,0
CS(=O)(=O)Nc1ccc(/C=C/c2ccccc2)cn1,17,9
CCOCCCNC(=O)c1cc(NC(=O)c2ccc(Cl)c(Cl)c2)ccc1N1CCC(C)CC1,15,31
O=C(CSc1nnc(C23CC4CC(CC(C4)C2)C3)o1)N1CCCC1,-3,-1
O=C1COc2cc(C(=O)N3CCN(CC(F)(F)F)CC3)ccc2N1,6,6
Cc1cc(C)n2ncc(CN(C)Cc3nncn3C(C)C)c2n1,-2,1
Cc1ccc(C2SCCN2C(=O)Nc2c(Cl)cccc2Cl)c(C)c1 (centres undefined),16,25
Cc1csc(SCc2cc(=O)c(OC(=O)c3ccc4ccccc4c3)co2)n1,-1,-6
CNc1cc(-c2cccc(C)c2)ncn1,2,1
CC(C(=O)NC1CCOc2ccccc21)N1CCN(c2ccccc2F)CC1 (centres undefined),-2,-2
